Assay outcomes as filed in PubChem BioAssay.
Sa helicase inh: S. aureus DNA helicase inhibition | AID 485395 | inhibition, %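 (tested at about 80 µM)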 | hit rate 0.05% among 120,000 | purified S. aureus helicase, fluorescence unwinding assay; about half of the hits fall short of the stated cut;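 active means both duplicates at 50% or more, or one of them with a favoured structure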;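 further: 0% = mean of negative control wells and 100% = mean of positive control wells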
MgrA-DNA mod: modulators of Staphylococcus aureus MgrA DNA binding; fluorescence polarization; inhibition, %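 (about 10 µg/mL by stock and volumes)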; hit rate 0.13% among 84,000; AID 602314;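 active means above 50% in either of two replicates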;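 further: 0% = protein plus DNA without compound and 100% = DNA alone without protein; higher means less MgrA bound to DNA so lower polarization; one replicate is shown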
Active calls of the source: *; x = not tested or not shown; & = joins results of further samples. These rows are one share of the data; count on the stated rates, not on these rows.

Compound	Sa helicase inh	MgrA-DNA mod
COC(=O)Cc1[nH]n(-c2ccccc2)c(=O)c1C(C)=NCc1cccnc1	-14	0.0
Cc1cccn2c(=O)cc(CN3CCN(S(=O)(=O)c4ccc5c(c4)OCCCO5)CC3)nc12	13	x
CN(C)c1ccc(C2NC(=S)NC3=C2N2CCC3CC2)cc1 (centres undefined)	35	x
O=C1C(c2ccc(I)cc2)=C(O)c2ccccc21	x	3.4
CN(C(=O)c1cc2c(Cl)nc3ccccc3c2s1)c1ccccc1	13	-2.4
O=C(NCc1ccccc1Cl)C1COc2ccccc2O1 (centres undefined)	5	-1.8
O=C(Oc1ccccc1)c1cn(-c2ccccc2)nc1-c1cccnc1	10	0.2
C=CCn1c(-c2ccccc2)nn(CNc2ccccc2Cl)c1=S	16	-1.8
CN(Cn1c(=O)oc2cc(Br)ccc21)C1CCCCC1	15	x
COCC(C)NC(=O)Nc1c[nH]c2ccccc12 (centres undefined)	6	x
Cc1nn(CC(C)C)c(Cl)c1C(=O)N1CCCc2ccccc21	12	x
COC(=O)c1sccc1NC(=S)N1CCCC1	6	3.1
COc1ccc(Nc2ncnc3ccccc23)cc1	-1	0.6
CCCCOC(=O)c1ccc(NC(=O)c2cnccn2)cc1	7	x
O=C1NCCNC1Cc1ccc2ccccc2n1 (centres undefined)	-16	x
Cc1ccc(NC(=O)c2ccc(-c3ccc([N+](=O)[O-])cc3)o2)cc1-c1nc2ncccc2o1	x	-1.1
CCc1ccccc1NC(=O)Cc1ccc(Br)cc1	-1	-5.8
Cn1cc(I)c(C(=O)n2cc(Br)cn2)n1	-8	x
COc1cccc(-c2cc(C(=O)NCC(C)C)no2)c1	-2	x
CCN1CCSc2ccc(C(=O)Nc3c(F)c(F)c(F)c(F)c3F)cc21	13	x
CCN(CC)S(=O)(=O)c1cccc(C(=O)Oc2cccc(-c3cnc4ccccc4n3)c2)c1	-11	0.0
CSc1ccc(Cl)c(C(=O)OCC(=O)N(C)c2ccccc2)c1	-24	1.0
C=CCNC(=O)Nc1c[nH]c2ccccc2c1=O	5	-3.2
N#CCc1nn(-c2ccccc2)c(/N=C/c2cc(Cl)cc(Cl)c2O)c1C#N	x	3.0
CS(=O)(=O)N(CC(=O)N1CCc2ccccc2C1)c1ccccc1	-14	1.3
CSc1ccc(CCNC(=O)C2CCCN(c3ncnc4c3nc3n4CCCCC3)C2)cc1 (centres undefined)	-25	x
Clc1ccccc1-c1nnc(C(c2ccccc2)N2CCC3(CC2)OCCO3)o1 (centres undefined)	3	x
CC(=O)Nc1ccc(NC(=O)COC(=O)C2CCCCC2)cc1	-9	-1.2
CSc1sc(C(=O)NC(=O)NCc2cccnc2)c(C)c1-c1ccon1	-1	x
NC(CO)C12CC3CC(CC(C3)C1)C2 (centres undefined)	1	3.5
COc1ccc(OC)c(NC(=O)CC2C(=O)NCCN2C(=O)C(F)(F)F)c1 (centres undefined)	-25	x
CC1(C)C2CCC1(C)C(NC(=O)C1CCCCC1)C2 (centres undefined)	x	-2.7
COc1ccc(C2C3=C(CC(C)(C)CC3=O)N(C)C3=C2C(=O)CC(C)(C)C3)cc1	8	1.1
CCCS(=O)(=O)c1ccc2nc(NC(=O)OC)[nH]c2c1	x	-1.9
C[C@]12CC=C(C#N)[C@@]1(C)CC=C2C#N	-13	x
Cc1c(CCNS(=O)(=O)c2ccc(Br)cc2)c2ccccc2n1Cc1ccccc1	7	2.6
Cc1cccc(C(=O)OCC(=O)NC2CCCC(C)C2C)c1 (centres undefined)	11	-1.1
CCOc1cc(C(=O)NCc2ccc3c(c2)n(C)c(=O)n3C)cc(OCC)c1OCC	21	-3.2
Cc1ccc(C2C(C#N)=C(N)OC(C3CC3)=C2C#N)cc1 (centres undefined)	x	-0.1
CCOC(=O)Cn1nc[n+]2[nH]c(C)cc(=O)c12	1	-4.9
CCOC(=O)c1sc(Br)nc1C	x	-0.2
CCS(=O)(=O)n1nc(-c2ccccc2)cc1N	13	4.7
O=C(O)c1ccc(Cn2cccn2)o1	-5	-0.5
Cc1cccc(OCC(=O)Nc2c(C(=O)Nc3cccc(F)c3)oc3ccccc23)c1	14	0.1
N[C@@H](C(=O)N[C@@H]1C(=O)N2C(C(=O)O)=C(Cl)CS[C@H]12)c1ccccc1	x	-3.5&0.9&0.9
CCCCNC(=O)c1sc2nc(C)cc(C)c2c1-n1cccc1	22	x
CNc1nc(-c2cc(C)n(-c3cccc(C(F)(F)F)c3)c2C)cs1	19	x
C/C(=N\NC(=O)C1=NNC(=O)C1C)c1cccs1 (centres undefined)	27	x
Cc1ccc(S(=O)(=O)N(C)C(C)C(O)c2ccccc2)cc1 (centres undefined)	-8	-1.1
Cc1ccc2nc(-c3ccccc3)cc(C(=O)Nc3ccccc3)c2c1	-15	0.9
CCOC(=O)c1sc(N2N=C(C)CC2=O)nc1C	9	-0.7
CCc1ccc(Nc2cc(C(=O)NCC(OC)OC)c3ccccc3n2)cc1	16	-0.2
O=S(=O)(NC1Cc2ccccc2C1)c1ccc(-c2csnn2)cc1	x	-0.6
Cc1cccc2sc(NC(=O)CN3CSCC3=O)nc12	-15	x
Cc1ccccc1N1C(=O)c2ccccc2C(CC(=O)N(C)C)(CC(=O)N(C)C)C1=O	-9	x
O=C(NCc1csc(-c2cccs2)n1)c1ccsc1	20	x
COc1ccc(F)cc1S(=O)(=O)Nc1cccc(-c2ccc(N3CCCCC3)nn2)c1	-16	x
O=C(O)CCc1ccc(-c2cccs2)n1-c1ccc(C(=O)O)cc1	6	x
O=S1(=O)c2ccccc2-c2cc(Br)ccc21	9	1.9
CCSc1cc(C)nc(NC(=O)CC)n1	-2	-0.1

A second format for six compounds above:
Under each structure: Sa helicase inh | MgrA-DNA mod
- CCN1CCSc2ccc(C(=O)Nc3c(F)c(F)c(F)c(F)c3F)cc21
 : 13 | x
- CCN(CC)S(=O)(=O)c1cccc(C(=O)Oc2cccc(-c3cnc4ccccc4n3)c2)c1
 : -11 | 0.0
- CSc1ccc(Cl)c(C(=O)OCC(=O)N(C)c2ccccc2)c1
 : -24 | 1.0
- C=CCNC(=O)Nc1c[nH]c2ccccc2c1=O
 : 5 | -3.2
- N#CCc1nn(-c2ccccc2)c(/N=C/c2cc(Cl)cc(Cl)c2O)c1C#N
 : x | 3.0
- CS(=O)(=O)N(CC(=O)N1CCc2ccccc2C1)c1ccccc1
 : -14 | 1.3

(list continues)
Compound	Sa helicase inh	MgrA-DNA mod
CN(C)S(=O)(=O)c1ccc(Nc2nc3ccccc3n3cnnc23)cc1	7	x
c1ccc(C2Sc3ccccc3N=C3c4ccccc4SCC32)cc1 (centres undefined)	x	-1.4
N#Cc1c(Cl)nc(Cl)c(Cl)c1Cl	-3	x
CNC(=O)c1ccsc1NC(=O)c1cc2ccccc2cc1OC	11	x
Cc1oc2cc(Br)c(OC(=O)c3ccco3)cc2c1C(=O)OC(C)C	0	-0.5
O=C(CNC1=NCCC1)c1ccccc1	-12	x
CC(C(=O)O)N1Cc2ccccc2C1=O (centres undefined)	x	-3.2
O=C1c2ccccc2CN1C(CO)Cc1ccccc1 (centres undefined)	x	2.4
CC1CCCCC1NC(=O)c1cn(-c2ccccc2)nc1-c1cccs1 (centres undefined)	-11	x
COc1ccccc1C(CCNS(=O)(=O)c1ccc(C)cc1)c1ccco1 (centres undefined)	9	-0.6
COc1ccccc1NC(=O)NCCC(=O)N1CCCC1	-8	x
Cc1ccc(CNC(=O)C2CCN(C(=O)c3ccc(-n4ccc5ccccc54)s3)CC2)o1	14	x
Cc1ccc(-c2cc(-c3c(C)nn(C)c(=O)c3N)[nH]n2)cc1	x	-1.1
CC(C)Cn1c(SCC(=O)c2ccc(S(=O)(=O)N3CCOCC3)cc2)nc2ccccc21	-11	x
Nc1cc(Cl)ccc1C(=O)OCC(=O)NCC1CCCCC1	-20	2.5
CCC(=O)NC(Nc1sc2c(c1C#N)CCCC2)(C(F)(F)F)C(F)(F)F	-4	-2.1
COc1ccc(C)cc1NC(=O)CSc1nnc(C(F)(F)F)n1C	x	-1.8
CSc1nnc(NCc2cccc(Cl)c2)s1	x	0.8
CCOC(=O)C1CCN(C(=O)CSc2ccc(NC(C)=O)cc2)CC1	18	x
COC(=O)C1Cc2c([nH]c3ccccc23)C(C)N1 (centres undefined)	-5	-2.8
CC(=O)N1CCC(N(CCCN2CCC(C)CC2)C(=O)NC23CC4CC(CC(C4)C2)C3)CC1	10	x
Cc1cc(C(=O)N2CCCCC2)c2cc(F)ccc2n1	9	2.9
CCn1c(=O)cc(SCC(=O)NC2CCCCC2)c2ccccc21	-17	x
Cc1nc(Cc2nc3ccccc3n2Cc2ccccc2F)no1	9	x
COc1cc2[nH]c(=O)c(C(=O)NCCN3CCCC3)c(O)c2cc1OC	8	-5.4
CCOC(=O)c1c(-c2ccccc2)oc2c1cc(OC(=O)c1ccccc1Br)c1ccccc12	x	-1.7
CC(=O)C(C)(C)OC(=O)NCCc1ccccn1	x	-3.2
CCSc1nnc(SC/C(O)=C(\C(=O)OC)c2nc3ccccc3[nH]2)s1	-13	x
C[N+](C)(Cc1ccccc1)Cc1ccccc1	6	-2.6
CCOc1ccccc1NC(=O)Cn1cc(S(=O)(=O)N2CCC(C)CC2)c2ccccc2c1=O	1	2.5
COc1ccc(C(=O)Nc2ccc3c(c2)C(=O)N(CCC(=O)O)C3=O)cc1	1	-0.5
CCOC(=O)CSc1nnc(-c2ccccc2)n1-c1ccccc1	x	-2.1
c1ccc(CN2CCCC(c3nc4ccccc4[nH]3)C2)cc1 (centres undefined)	4	x
COc1cc2nc(SCc3ccc(C)cc3)n3nc(-c4ccccc4)nc3c2cc1OC	13	1.2
O=C1c2cc3ccccc3cc2C(=O)C1c1ccccc1	x	-2.6
Cc1ccc(C)c(N2CCN(CCCNC(=O)C3CCCN(c4ncnc5c4nc4n5CCCCC4)C3)CC2)c1 (centres undefined)	-22	x
CCCC(=O)N(c1ccc(OCC)cc1)S(=O)(=O)c1ccc2c(c1)n(C)c(=O)n2C	-6	x
Cc1c(C#N)c(NC(=O)c2cccs2)n(CC2CC2)c1C	x	1.2
C#CCNc1ccccc1	-7	7.3
CCNC(=O)COc1ccc(-c2nnco2)cc1	1	x
Cc1cc(-n2c(C)cc(/C=C/C(=O)N3CCN(S(=O)(=O)Cc4ccccc4)CC3)c2C)no1	18	x
Cc1cc(C(=O)CN2CCN(Cc3ccc4c(c3)OCO4)CC2)c(C)n1-c1ncn[nH]1	7	x
COC(=O)c1ccc(NC(=O)C2CC(=O)N(C)C(=Nc3cc(Cl)ccc3Cl)S2)cc1 (centres undefined)	x	0.6
COc1cc(SC)ccc1C(=O)Nc1ccccc1C(N)=O	-12	1.5
CN(CCC#N)c1ncnc2sccc12	-5	x
O=C(O)Cn1nnc(-c2ccccc2)n1	-4	-5.5
Cc1nnc(NC(=O)CSc2nnc(CNC(=O)C34CC5CC(CC(C5)C3)C4)n2-c2ccccc2)s1	3	x
CN(C(=O)Nc1cnccc1C(F)(F)F)C1CCCCC1	-13	x
O=C(Nc1ccon1)c1cc2ccccc2oc1=O	2	0.3
O=C(Nc1ccccc1)C(Cc1nnc(-c2ccc(F)cc2)o1)C(=O)c1ccccc1 (centres undefined)	-10	x
O=C(c1ccc(Cl)cc1)N1CCN(C(c2ccccc2)c2ccccc2)CC1	12	-1.8
Cc1nc(-c2ccccc2O)n(-c2ccccc2)n1	-7	x
CCN1CCN(c2c(C(=O)c3ccc(C)c(C)c3)cnc3ccc(C)cc23)CC1	6	8.1
COc1ccc(N2CC(C(=O)N/N=C/c3ccccc3)CC2=O)cc1 (centres undefined)	-4	2.3
CC(C)c1cc(C(C)C)c(N)c(C(C)C)c1	7	0.5
CNCCC(Oc1ccccc1OC)c1ccccc1 (centres undefined)	x	0.2
COc1cccc(N2C(=O)c3ccc(C(=O)Nc4c[nH]c(=O)[nH]c4=O)cc3C2=O)c1	3	3.8
c1ccc([C@H]2N=C(CC3=N[C@H](c4ccccc4)[C@H](c4ccccc4)O3)O[C@H]2c2ccccc2)cc1	x	-0.3
O=C(NCCN1CCOCC1)C1CCC(CNS(=O)(=O)c2ccc(Cl)cc2)CC1 (centres undefined)	-3	x
O=C(OCC(=O)N1CCN(c2ccccc2)CC1)c1ccc(-n2cnnn2)cc1	-5	x

Ordered by count of non-hydrogen atoms (highest first): some entries from above.
Compound	Sa helicase inh	MgrA-DNA mod
Cc1nnc(NC(=O)CSc2nnc(CNC(=O)C34CC5CC(CC(C5)C3)C4)n2-c2ccccc2)s1	3	x
O=C(OCC(=O)N1CCN(c2ccccc2)CC1)c1ccc(-n2cnnn2)cc1	-5	x
O=C(c1ccc(Cl)cc1)N1CCN(C(c2ccccc2)c2ccccc2)CC1	12	-1.8

Next part:
Compound	Sa helicase inh	MgrA-DNA mod
O=C1c2cc(Br)ccc2-c2ccc(Br)cc21	x	1.6
O=C(CSCCc1ccccn1)Nc1ccc(Br)cc1F	-2	-1.4
COCC(=O)Nc1cc(C)cn(Cc2c(F)cccc2Cl)c1=O	0	-1.4
COC(=O)c1c(C)[nH]c(C)c1-c1ccn[nH]1	x	-2.1
Cc1nc(-c2noc(-c3ccc(Cl)cc3)n2)c(C(F)(F)F)o1	-32	x
CN=C1SC(C(=O)Nc2ccccc2)CC(=O)N1C (centres undefined)	6	4.0
Cn1cnnc1SCN1C(=O)c2ccccc2C1=O	13	3.5
CCOc1ccc(CCNS(=O)(=O)c2cnc[nH]2)cc1OCC	-1	x
